# From PubChem
# Bead autofluor: flagged as autofluorescent in microsphere protease counterscreen. compound autofluorescence counterscreen, microsphere flow cytometry; stronger effect = higher value. fluorescence intensity (concentration not given with the values). hit rate 3.1% among 360,000. AID 624483;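 active means at least 3 SD above the mean of all compounds, about 16000 in these data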;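 further: 100 nL of 1 mM stock went into each well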
# Mtb hypoxia inh: inhibitors of hypoxia-regulated fluorescent reporter in Mycobacterium tuberculosis; M. tuberculosis hypoxia-regulated fluorescent reporter, fluorescence; hit rate 0.1% among 300,000; fluorescence inhibition, % (no concentration beside the values);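 active means 35 to 45% if threefold the growth effect, above 45% if 1.5-fold the growth effect; inactive means the rest, general growth blockers included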;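 further: wells of about 50 µL received 100 nL stock; 0% = vehicle wells and 100% = reference inhibitor wells; whole bacteria with a GFP reporter of the hypoxia response; strong numbers were not always called active; many hits fall short of the cut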
# Sa RN4220 lethal: kills Staphylococcus aureus RN4220 | AID 1259311 | hit rate 0.33% among 330,000 | S. aureus RN4220 growth, OD600, 16 h | inhibition, % (no concentration beside the values);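 active means z-score of -3 or lower and OD600 up to 0.18 on both plates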;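 further: plate controls were untreated cells for no effect and reference antibiotic for full effect; stock transfer was 100 nL into about 80 µL; one replicate is shown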
# BJeLR lethal: kills HRASV12-expressing BJeLR cells. hit rate 0.17% among 300,000. BJeLR (HRASV12) viability, CellTiter-Glo ATP luminescence, 48 h; reference of the scale not given here. inhibition, % (test concentration not listed). AID 1554;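 active means replicate mean above 50%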;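 further: 50 nL library stock added to about 25 µL; numbers are from one replicate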
# ugtP null kill: growth inhibition of S. aureus ugtP deletion strain; AID 1259309; S. aureus RN4220 ugtP deletion, OD600 growth, 16 h; some inactives read as strong as hits; growth inhibition, % (concentration not given with the values); hit rate 0.54% among 330,000;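 active means z-score under -3 and OD600 up to 0.15 on both plates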;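 further: plate controls were untreated wells for no effect and antibiotic for full effect; wells of about 80 µL received 100 nL stock; the first replicate is given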
# PrP 5UTR inh: suppresses PrP 5' UTR mRNA reporter expression; cell-based PrP 5' UTR mRNA reporter, plate reader; inhibition, % (no concentration beside the values); hit rate 0.35% among 340,000; AID 488862;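 active means every replicate at 50% or more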;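 further: 0 = median of the neutral control wells; tested in H4 reporter cells; numbers are from one replicate; inactives centre near -14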
# Mtb hypoxia inh growth: further read-out of Mtb hypoxia inh, marked with its call; growth inhibition, %; measured here: M. tuberculosis growth (absorbance);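 0% = vehicle and 100% = reference antibiotic; read after six days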
# The depositor's hits bear a star; · = not tested or not shown; & = joins results of further samples.
SMILES,Bead autofluor,Mtb hypoxia inh,Mtb hypoxia inh growth,Sa RN4220 lethal,BJeLR lethal,ugtP null kill,PrP 5UTR inh
CCc1ccc(NC(=O)C[n+]2cc(-c3ccc(C)cc3)n3c2CCC3)cc1,·,11,14,-1.7,12,-24,·
Cc1ccc(C(=O)NCc2ccc(F)cc2)s1,3885,·,·,22,11,13,-16
CC(C)C(=O)Nc1ccc(NC(=O)c2cc3ccccc3o2)cc1,22449*,-4,3,-2.0,-2,-7,-15
O=C(O)/C=C/C(=O)NNC(=O)c1ccc(Br)cc1,2511,5,1,5.2,17,6,-18
COC(=O)c1sc(N/N=C/c2ccc(C(C)C)cc2)nc1C,3626,·,·,·,-12,·,-4
COc1ccc(S(=O)(=O)NCCSC(C)(C)C)c(Cl)c1Cl,10643,-1,8,10,-9,-12,-12
COc1ccc(N2C(=O)[C@@H]3[C@H](C2=O)[C@H](C(C)=O)N2c4ccccc4C=C[C@@H]32)cc1,3740,-16,5,4.7,13,-8,-12
Cn1c(N)c(C(c2ccccc2)c2c(N)n(C)c(=O)n(C)c2=O)c(=O)n(C)c1=O,2369,·,·,·,6,·,-14
CC(=O)Nc1ccc(S(=O)(=O)N2CCSC2c2ccccc2)cc1 (stereo not drawn),3885,·,·,2.1,-1,-7,0
Cc1ccc(C)c(S(=O)(=O)N2CCN(C(=O)C3CC3C)CC2)c1 (stereo not drawn),6061,-3,5,-2.9,-6,-1,-21
CCc1ccc(S(=O)(=O)NCCc2csc(C)n2)s1,2907,16,19,1.0,-6,10,-19
Cc1noc(C)c1COc1ccc(C(=O)Nc2cccnc2)cc1,3447,3,13,1.0,3,7,-34
CC/C(=N\NC(=O)c1ccc(N(C)C)cc1)c1ccccc1,2413,·,·,·,0,·,-2
O=C(CSC(=S)N1CCOCC1)Nc1ncc2c(n1)CCCC2=O,5725,6,5,2.9,1,3,-41
CC(=O)c1sc(N)nc1C,3688&4475,15,8,5.6,1,2,-23
O=C(O)C1C2C=CC(C2)C1C(=O)OCc1ccccc1 (stereo not drawn),4614,·,·,·,-17,·,-12
N/C(=N\OC(=O)CCCOc1ccccc1)c1ccccn1,2772,19,6,5.7,7,14,-18
CCN(CC)CCCNc1nc(N)c([N+](=O)[O-])c(NCCO)n1,3832,3,-2,2.6,-1,3,-22
COc1cccc(-n2c(-c3ccc4[nH]c(C)c(C)c4c3)n[nH]c2=S)c1,4243,6,7,-1.1,-1,3,-16
CCc1ccccc1NC(=O)CCN1C(=O)c2ccccc2C1=O,3562,·,·,5.1,5,0,6

# Looked up by structure from the entries so far:
SMILES,Bead autofluor,Mtb hypoxia inh,Mtb hypoxia inh growth,Sa RN4220 lethal,BJeLR lethal,ugtP null kill,PrP 5UTR inh
CC(C)C(=O)Nc1ccc(NC(=O)c2cc3ccccc3o2)cc1,22449*,-4,3,-2.0,-2,-7,-15
CC(=O)c1sc(N)nc1C,3688&4475,15,8,5.6,1,2,-23
N/C(=N\OC(=O)CCCOc1ccccc1)c1ccccn1,2772,19,6,5.7,7,14,-18
Cn1c(N)c(C(c2ccccc2)c2c(N)n(C)c(=O)n(C)c2=O)c(=O)n(C)c1=O,2369,·,·,·,6,·,-14
COc1ccc(N2C(=O)[C@@H]3[C@H](C2=O)[C@H](C(C)=O)N2c4ccccc4C=C[C@@H]32)cc1,3740,-16,5,4.7,13,-8,-12

# Following part.
SMILES,Bead autofluor,Mtb hypoxia inh,Mtb hypoxia inh growth,Sa RN4220 lethal,BJeLR lethal,ugtP null kill,PrP 5UTR inh
Cc1ccc(CNC(=O)CCc2c(C)nc3c(c(C)nn3-c3ccc(C)cc3)c2C)cc1,6127,0,8,0.5,-8,15,-6
CCCN(CCC)c1nc2ccccc2nc1C(C#N)C(=O)OC(C)COC (stereo not drawn),·,·,·,-1.6,-5,7,·
Oc1ccccc1/C=N/Nc1nc2ccccc2o1,4260,·,·,·,14,·,-48
O=C(O)c1ccc(NC(=S)NC(=O)c2cncc(Br)c2)cc1,3839,3,7,4.3,-3,3,-2
O=C(CNC(=O)c1ccc(Cl)cc1)OC1CCOC1=O (stereo not drawn),4512,1,3,2.2,0,1,-35
O=C(O)Cn1cc(C=NNc2ccc([N+](=O)[O-])cn2)c2ccccc21,·,14,2,-1.9,·,16,·
O=C(NNC(=O)c1cccc2ccccc12)c1ccc(Cl)cc1,3172,11,9,24,·,5,-44
COc1ccc2c(c1)C(=O)N(c1ccccc1OC)C(=O)C2(C)C,5441,1,2,4.4,-6,0,-30
O=C(COc1ccccc1Cl)Nc1ccc2c(c1)OCO2,3332,2,-6,8.9,6,8,-68
O=C(CCc1nc2cccnc2n1Cc1ccccc1)N1CCOCC1,4257,3,1,3.8,-1,6,-11
CC(=NNC(=O)c1ccoc1C)c1ccccc1,·,9,-2,2.9,·,9,·
Cc1cc(NC(=O)C(C)C)ncc1NC(=O)c1ccco1,2981,·,·,·,-3,·,-14
Cc1cccc(C)c1OCC(=O)Nc1cccc(NC(=O)c2ccco2)c1,2432,·,·,9.1,0,15,-77
CSc1nsc(SCC(=O)Nc2ccccc2)n1,3479,-3,4,3.4,1,2,-24
CNC(=O)CS(=O)CC(=O)Nc1cc(OC(C)C)c(Cl)cc1Cl (stereo not drawn),4986,10,3,5.5,-3,6,-8
Cc1ccc(S(=O)(=O)Cn2nnnc2CN(Cc2ccco2)Cc2cccs2)cc1,3540,-2,7,18,2,1,-5
Cc1ccc(Cl)cc1N1CCN(C(CC(C)C)c2nnnn2CC2CCCO2)CC1 (stereo not drawn),2721,·,·,3.4,-12,-4,-10
CCCCNC(=O)CCn1ccc2cc(S(=O)(=O)N3CCCC3)ccc21,4972,-4,1,0.7,1,1,-14
Cn1cc([N+](=O)[O-])c(C(=O)Nc2ccc(-c3nc4ccccc4[nH]3)cc2)n1,8290,0,5,7.1,-2,-5,-62
COc1ccc(OC)c(NC(=O)COC(=O)CCC2CCCC2)c1,7550,6,8,0.5,·,3,-23
CC1(C)CC2CC(C)(CN2C(=O)c2ccc([N+](=O)[O-])cc2)C1 (stereo not drawn),4394,20,12,7.5,4,7,-1
CCN(C(=O)COC(=O)c1nn(-c2ccccc2)c(=O)c2ccccc12)C1CCS(=O)(=O)C1 (stereo not drawn),5754,5,10,4.8,-10,16,-18
CC(NC(=O)CN(C)S(=O)(=O)c1ccc2c(c1)c(=O)n(C)c(=O)n2C)c1ccccc1 (stereo not drawn),4489,-3,4,2.7,-2,1,3
Cc1cc(C(=O)Nc2ccc(N3CCOCC3)c(Cl)c2)c(C)o1,4087,-3,4,-3.3,-6,15,-37
O=C1CCC(C(=O)OCC(=O)c2c[nH]c3ccccc23)=NN1,2538,0,6,3.6,6,-5,-3
CN(C)S(=O)(=O)c1ccc(S(=O)(=O)NCc2ccc3c(c2)OCO3)cc1,2948,3,1,-3.3,3,0,-6
Cc1ccc(-c2nc(NCc3ccc(F)cc3)n(S(C)(=O)=O)n2)cc1,4499,5,8,0.6,2,-5,-22
COc1ccc(-n2c(SCC(N)=O)nc3nc4c(cc3c2=O)COC(C)(C)C4)cc1,2081,·,·,·,1,·,-18
COc1ccc(NC(=O)CN2CCN(C3c4ccccc4-c4ccccc43)CC2)c(OC)c1,2588,·,·,-6.9,-7,-24,-14
COc1ccc(C(=O)Nc2nnc(S(=O)(=O)N(C)Cc3ccc(F)cc3)s2)cc1OC,6263,-2,2,12,5,9,-4
COc1ccc(Nc2nc(-c3cccnc3)cs2)c(OC)c1,4032,4,13,-3.3,-6,5,-2
O=C(COC(=O)CCN1C(=O)/C(=C\C=C\c2ccccc2)SC1=S)Nc1cc(F)ccc1F,4972,10,5,9.5,3,-7,19
COc1ccccc1C(=O)COC(=O)c1cc(=O)[nH]c2ccccc12,5711,2,7,1.0,5,-7,0
Cc1ccc(S(=O)(=O)N2CCN(C(=O)COc3ccc(C)nc3[N+](=O)[O-])CC2)c(C)c1,4235,7,5,5.9,3,15,-28
CC1(C)CC(=O)c2cc(OCC(=O)N3CCOCC3)ccc2O1,3224,0,1,1.0,-6,-5,-10
Cc1cccc(-n2c3nc(=O)[nH]c(=O)c-3cc3cc([N+](=O)[O-])ccc32)c1,10340,-2,9,9.9,21,8,-5
NCCNc1ccc([N+](=O)[O-])c2cccnc12,4342,12,10,1.0,-2,5,16
CCN(C[C@H]1N[C@@](Cc2ccccc2)(C(=O)OC)[C@H]2C(=O)N(Cc3ccccc3)C(=O)[C@@H]12)C(=O)c1ccc(C)cc1,3961,2,0,8.4,·,0,-24
CN(Cc1ccc2c(c1)OCCO2)C(=O)CN1C(=O)NC2(CCCCC2)C1=O,6058,0,5,0.1,12,6,-1
COc1ccc(C(C)=O)cc1CSCc1cc(C(C)=O)ccc1OC,4137,16,5,4.2,-1,9,-17
CCN1C(=O)c2ccccc2S(=O)(=O)c2ccc(C(=O)NCCCN(CC(C)C)CC(C)C)cc21,3657,14,9,-2.9,5,19,-9
CC(=NN=Cc1cccc(F)c1)c1nnn(-c2nonc2N)c1C,·,4,2,7.6,·,-4,·
CN(C)C(=O)CSc1nnc(C23CC4CC(CC(C4)C2)C3)o1,22684*,21,10,7.2,4,2,-55
Cc1cc(NC(=O)CSc2cn(CCNC(=O)c3ccccc3)c3ccccc23)no1,4977,7,12,5.0,2,-3,-11
O=C(N/N=C/c1cc([N+](=O)[O-])cc(Br)c1O)C12CC3CCC(CC(C3)C1)C2,3753,·,·,·,1,·,-18
COc1ccc(Br)cc1-c1nc2c(c(=O)[nH]c(=O)n2Cc2ccccc2)n1C,3924,7,5,1.6,7,-1,-6
O=c1[nH]cnc(O)c1N=Nc1ccccc1,4252,3,8,2.0,4,19,-21
O=C(N1CCOCC1)C12CC3CC(C1)CC(n1cnc(Cl)n1)(C3)C2,2098,9,2,3.3,2,0,-6
COc1ccccc1CNC(c1ccccc1)c1ccccc1,4445,-2,-3,2.9,9,11,-22
CC(C)c1ccc(-c2nc(N3CCCCC3)[nH]c(=O)c2C#N)cc1,6916,6,6,4.4,2,16,-13
CCCCOCCCN1C(C)=CC(=C2C(=O)NC(=S)NC2=O)C=C1C,6320,12,4,9.9,-3,4,-18
CC(=O)c1ccc(S(=O)(=O)N2Cc3ccccc3CC2C(=O)O)cc1 (stereo not drawn),5064,2,9,5.4,4,-1,-13
O=C(NCc1ccco1)c1ccccc1-c1ccccc1,22200*,2,10,8.8,-5,-1,-6
COc1cc(C(=O)OCc2cc(=O)c(O)co2)ccc1OC(F)F,4203,-5,1,3.3,-4,9,-16
O=C(CCl)Nc1c[nH]c(=O)[nH]c1=O,3860,18,24,0.1,·,8,-31
CCN(CCn1cccn1)C(=O)CC1C(=O)NCCN1CC1CCCCC1 (stereo not drawn),4688,·,·,·,4,·,-5
CN(C)S(=O)(=O)N1CCN(C(=O)c2ccc3c(c2)OCO3)CC1,3820,15,4,3.6,0,-2,-31
Cc1cnc(NC(=O)c2ccco2)s1,7155,6,7,1.8,9,4,-52
Cc1ccc(OCC(=O)N2CCC(N3CCCCCC3)CC2)cc1,4699,·,·,3.5,-3,1,-4
NC(=NOC(=O)c1cccc(Br)c1)c1ccc(Br)cc1,·,5,-8,2.9,·,-4,·

# Just Mtb hypoxia inh growth and ugtP null kill (two entries from above):
Structure	Mtb hypoxia inh growth	ugtP null kill
O=c1[nH]cnc(O)c1N=Nc1ccccc1	8	19
O=C(N1CCOCC1)C12CC3CC(C1)CC(n1cnc(Cl)n1)(C3)C2	2	0

# The listing continues.
SMILES,Bead autofluor,Mtb hypoxia inh,Mtb hypoxia inh growth,Sa RN4220 lethal,BJeLR lethal,ugtP null kill,PrP 5UTR inh
C=CCC1=C/C(=C\c2c(N)n3nc(CC(=O)N4CCCC4)sc3nc2=O)C=C(OC)C1=O,5364,1,-2,5.2,1,10,-27
COc1cccc(C(=O)C2CN(c3ccccc3)CC2c2ccc(Cl)cc2)c1 (stereo not drawn),21602*,7,0,-3.8,-1,54,-36
CCOC(=O)C1=C(COc2ccccc2)NC(=O)NC1c1ccc(Br)cc1 (stereo not drawn),3020,4,1,23,-14,1,-9
CN(C)Cc1ccccc1Sc1ccc(Br)cc1,7992,13,2,3.2,-3,2,-7
CCc1ccc(-c2cc(C)no2)cc1S(=O)(=O)N1CCN(c2ccc(F)cc2)CC1,4365,8,-1,4.2,16,14,-4
N#C/C(=C1\CCCN1)c1ccc2ccccc2n1,3379,·,·,·,-5,·,-13
Cc1cc(=O)oc(C)c1C(=O)Nc1cccnc1Cl,·,-3,4,3.7,-6,6,-29
Cc1ccccc1NC(=O)CSc1nnc(-c2ccccc2)n1-c1ccccc1,2899,3,2,0.3,-2,11,-12
